Rce1 inh = yeast Rce1p protease inhibitors, primary screen, biochemical, fluorescence, cell-free homogeneous. yeast membranes, quenched prenylated peptide cleavage fluorescence. 290,000 tested, 0.27% active. calls only. CAAX prenyl protease 2 (Saccharomyces cerevisiae (strain ATCC 204508 / S288c)), Q03530;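 active = fall in fluorescence gain of 50% or more versus controls, with final raw signal at or below 3038400; inconclusive = same 50% fall but final raw signal above 3038400; inactive = fall in fluorescence gain under 50%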;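 note: plate controls were neutral control wells for no effect and wells lacking membranes for full effect; tested at 10 µM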
Target sequence (Q03530 whole entry, looked up): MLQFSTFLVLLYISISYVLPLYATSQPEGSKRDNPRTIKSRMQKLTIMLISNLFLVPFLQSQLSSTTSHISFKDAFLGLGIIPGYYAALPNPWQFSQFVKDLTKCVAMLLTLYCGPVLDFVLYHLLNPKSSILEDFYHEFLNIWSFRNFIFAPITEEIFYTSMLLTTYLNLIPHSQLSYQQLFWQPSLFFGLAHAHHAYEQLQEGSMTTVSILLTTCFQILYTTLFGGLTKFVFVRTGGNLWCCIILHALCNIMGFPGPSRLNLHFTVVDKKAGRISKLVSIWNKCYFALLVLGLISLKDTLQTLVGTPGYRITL
MT1-MMP act inh = blockers of MT1-MMP proenzyme processing, primary screen, HT1080 RFP-PRO-GFP cells, GFP/RFP fluorescence; GFP/RFP ratio change, % at 20 µM; 360,000 tested, 0.061% active; GFP/RFP ratio fluorescence, overnight; percent of plate control window, DMSO zero; Matrix metalloproteinase-14 (Homo sapiens), P50281;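 active = GFP/RFP ratio change of at least 30% with cell ATP level not reduced by more than half and red fluorescence within 50% of control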; note: strong numbers were not always called active
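Read-out: GFP/RFP fluorescence ratio; Test system: RFP-PRO-GFP reporter HT1080 cells; Compound dosing: single-point 20 µM compound, 1% DMSO; Times: overnight compound exposure at 37 °C.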
Env fusion inh = inhibitors of HIV-1 Env-driven cell-cell fusion, primary screen, HeLa-JRFL effector, CEM21 target cells, luciferase | 360,000 tested, 1.1% active | AID 651610, 2012 | inhibition, % at 12.3 µM;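 active = mean replicate inhibition score of at least 50 and every replicate individually at or above 50; inconclusive = only one of the two criteria met; inactive = mean below 50 and not all replicates reaching 50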;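 note: 0% = plate neutral controls and 100% = maraviroc near 300 nM; one replicate is shown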
eIF4H inh = human eIF4H binding inhibitors, primary screen, translation initiation inhibitor project, biochemical, uHTS, fluorescence polarization; Eukaryotic translation initiation factor 4H (Homo sapiens), Q15056; eIF4H fluorescence polarization binding assay; inhibition, % at 35 µM; 290,000 tested, 0.94% active; AID 2012, 2009;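 active = 50% or more with normal probe brightness, or confirmed in later tests; inconclusive = above 50% with abnormal brightness, or retests that disagree; inactive = below 50% or failed in later tests; about a fifth of its hits are not listed in these tables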;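 note: calls also rest on retests at 20 µM and on dose response follow-up; 0% = protein and probe with vehicle and 100% = probe without protein; strong numbers were not always called active; many hits fall short of the cut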
CSC inhib = cancer stem cell viability inhibitors, primary screen, luminescence; cancer stem cell-like cells viability; inhibition, % at 7.5 µM; 300,000 tested, 1.1% active;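 active = mean at 75% or more and at least half the replicates too; inconclusive = mean and replicates disagree; tested in HMLE shEcad cells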;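 note: 0% = median of negative and 100% = median of positive control wells; the first replicate is given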
UUG fidelity = modulators of yeast start codon fidelity, primary screen, whole organism, S. cerevisiae, single point, plate reader | activity score, % at 18.7 µM | S. cerevisiae UUG-firefly luciferase reporter, luminescence/redox ratio | 350,000 tested, 0.13% active;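 active = replicate mean at a twofold rise or more, about +100% in these data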;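 note: firefly luciferase made from a UUG start codon reports start codon fidelity; reporter light over untreated wells divided by growth signal over untreated wells; some hits fall short of that in this replicate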
PABP FP inh = PABP poly(A) RNA binding inhibitors, primary screen, biochemical, fluorescence polarization, uHTS | Polyadenylate-binding protein 1 (Homo sapiens), P11940 | inhibition, % at 35 µM | 290,000 tested, 1% active | AID 2014, 2009;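 active = 50% or more with normal probe brightness, or confirmed in later tests; inconclusive = above 50% with abnormal brightness, or retests that disagree; inactive = below 50% or failed in later tests; about a fifth of its hits are not listed in these tables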;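 note: calls also rest on retests at 20 µM and on dose response follow-up; controls were probe without protein and protein plus probe with vehicle; some compounds called inactive have numbers as strong as hits; many hits fall short of the cut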
Target sequence (P11940 whole entry, looked up): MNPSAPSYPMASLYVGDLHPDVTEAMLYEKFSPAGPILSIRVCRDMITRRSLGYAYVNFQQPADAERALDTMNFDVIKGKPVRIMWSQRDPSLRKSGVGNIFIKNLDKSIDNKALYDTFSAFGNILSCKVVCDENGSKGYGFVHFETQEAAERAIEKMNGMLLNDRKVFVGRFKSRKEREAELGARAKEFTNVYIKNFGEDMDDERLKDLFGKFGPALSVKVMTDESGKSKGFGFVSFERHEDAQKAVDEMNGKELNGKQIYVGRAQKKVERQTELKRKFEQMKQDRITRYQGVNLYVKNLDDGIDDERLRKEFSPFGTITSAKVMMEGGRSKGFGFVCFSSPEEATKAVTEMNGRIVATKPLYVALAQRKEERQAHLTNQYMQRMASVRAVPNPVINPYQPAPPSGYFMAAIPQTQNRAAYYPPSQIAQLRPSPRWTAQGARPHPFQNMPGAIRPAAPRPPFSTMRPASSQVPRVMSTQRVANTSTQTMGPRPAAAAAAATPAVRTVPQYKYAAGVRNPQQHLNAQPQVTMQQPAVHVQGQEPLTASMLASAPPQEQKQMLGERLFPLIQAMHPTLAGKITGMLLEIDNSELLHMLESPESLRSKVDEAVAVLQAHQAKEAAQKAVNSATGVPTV
MT1-MMP act inh RFP = second read-out of MT1-MMP act inh, no call of its own (marks repeat the call); RFP signal change, %; measured here: RFP expression control read;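 0 = vehicle wells; hits needed this value within 50% of zero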
An asterisk follows results filed as active; i = inactive; ? = inconclusive; nt = no result given; & = joins results of further samples.

SMILES	Rce1 inh	MT1-MMP act inh	MT1-MMP act inh RFP	Env fusion inh	eIF4H inh	CSC inhib	UUG fidelity	PABP FP inh
CC(=O)Nc1cccc(NC(=O)C2CC(=O)N(c3ccc(C)cc3)C2)c1 (stereo not given)	i	8	0	nt	-13	-8	-7	0
O=C(CCCSc1ccc(Cl)cc1)Nc1cc(S(=O)(=O)N2CCOCC2)ccc1O	nt	5	-10	4	nt	nt	-10	nt
O=C(Nc1ccc2cn[nH]c2c1)c1c(Cl)cccc1Cl	i	-6	-6	-22	4	-8	23	5
COc1cccc(NC(=O)CN(C)C(=O)c2sc3cc(Cl)ccc3c2Cl)c1	nt	0	-1	-10	nt	27	19	nt
CC(CCc1ccccn1)(CCc1ccccn1)C(=O)c1ccccc1	nt	-1	3	22	nt	nt	-6	nt
CC(=O)Nc1ccc(Nc2nc3c(S(=O)(=O)c4ccc(C)c(C)c4)nnn3c3ccccc23)cc1	i	-4	1	-7	6	0	nt	-10
Cc1c(C(=O)O)cccc1N1C(=O)Nc2ccccc2N1O	i	5	9	-17	-4	-6	-7	9
COc1cc(OC)cc(C(=O)N2CCN(Cc3cccc(F)c3)CC2)c1	i	-5	-5	-12	0	-6	-11	46
Cc1ccnc(NS(=O)(=O)c2ccc(NC(=O)c3ccc4c(c3)OCCO4)cc2)n1	i	-2	-2	2	9	1	nt	-2
COc1ccc(OC(=O)c2cnc3n(c2=O)CCS3)cc1	i	-2	-1	-4	-2	1	-22	-13
Cc1ccc(SCC(=O)NC(=O)c2ccc(S(=O)(=O)N(C)C)cc2)cc1C	i	4	3	9	-3	-10	nt	0
COC(=O)c1ccc(OCC(=O)NC2CCCCCC2)cc1	i	2	0	nt	-2	12	-8	9
COc1ccc(S(=O)(=O)Nc2c(C)n(C)n(-c3ccccc3)c2=O)cc1C(=O)O	i	-5	-3	5	-4	nt	-7	-4
Cn1c(CNc2nc(-c3ccccc3)cs2)nnc1SCC(=O)c1ccccc1	i	3	-3	nt	-1	-7	-12	1
CC1CCCC(C)N1C(=O)CSc1nnc(NC(=O)c2cccs2)s1 (stereo not given)	i	1	3	20	-10	nt	11	-12
CSc1sc(C(=O)N2CCc3ccccc32)cc1S(=O)(=O)C(C)C	i	4	2	21	-14	-2	3	-9
C/C=C/C(=O)Nc1nnc(C2CCCCC2)s1	i	2	2	13	3	nt	-12	4
O=C(CC(=O)N/N=C\c1ccc([N+](=O)[O-])cc1)NCCc1ccccc1	i	-3	-8	2	2	18	-13	-6
CC(C)CC(NC(=O)OC(C)(C)C)C(=O)O (stereo not given)	i	3	3	?	-4	0	nt	-7
Cc1ccc(C2CC(c3cccc(Br)c3)Nc3nnnn32)cc1 (stereo not given)	i	-3	-1	nt	-8	-19	-11	1
Nc1ccc(C(=O)OCc2csc(-c3ccccc3)n2)cc1[N+](=O)[O-]	i	7	3	-34	-8	-4	nt	8
C=CCn1c(O)c(C=Nc2ccc(CN3CCCCC3)cc2)c(=O)[nH]c1=S	i	-1	3	-2	-4	-8	10	1
COc1ccc(C(c2nnnn2Cc2cccs2)N2CCC(C(N)=O)CC2)c(OC)c1 (stereo not given)	i	-1	-3	nt	-4	-5	-9	8
COc1ccccc1N1CCN(S(=O)(=O)c2ccc(F)cc2)CC1	i	-5	-5	11	-2	-3	-4	-10
O=C(COC(=O)c1cccc(OC(F)F)c1)Nc1cccc(S(=O)(=O)N2CCCC2)c1	nt	2	-1	nt	nt	2	-6	nt
COc1ccccc1NC(=O)C(C)OC(=O)CCCOc1ccccc1 (stereo not given)	i	nt	nt	-2	nt	0	nt	nt
CN(CC(=O)Nc1cccc(F)c1)CC(=O)Nc1ccccc1[N+](=O)[O-]	i	4	-13	16	-6	-7	-4	4
COc1ccc(/C=N/NC(=O)C(=O)N2CCCCCC2)cc1[N+](=O)[O-]	i	6	0	-3	nt	-14	-13	nt
Cn1c(SCC(=O)NNC(=O)c2ccccc2)nnc1C(F)(F)F	nt	-1	2	5	nt	nt	-14	nt
Cc1cc(-c2nc(C)c(C(=O)NN)s2)no1	i	2	1	-129	-5	1	nt	-11
Cc1ccc2cc(CCNS(=O)(=O)c3ccc(Br)cc3)c(=O)[nH]c2c1C	i	0	-3	22	3	nt	-18	0
CN(C(=O)CN1C(=O)c2cccc(N)c2C1=O)C1CCCCC1	nt	-6	1	-12	nt	-2	-12	nt
N#CCOC(=O)C1CSC2(c3ccc(Br)cc3)CCC(=O)N12 (stereo not given)	i	-1	0	-11	2	0	nt	-3
COc1ccc(CC(=O)O/N=C(\N)Cc2ccc(OC)cc2)cc1	i	-1	0	1	0	-11	-14	-2
O=C(c1ccc(Cl)cc1)N1CCC(C(=O)N2CCCc3ccccc32)CC1	i	-2	-3	-9	-9	-12	-4	-9
COc1ccc(C(=S)N2CCCC2)cc1C	i	11	1	-23	2	-5	-32	0
C=C(NC(C)=O)c1c(F)cccc1F	nt	3	8	-22	nt	-14	-8	nt
Cc1ccc2cccc(S(=O)(=O)NC3CCS(=O)(=O)C3)c2n1 (stereo not given)	i	0	1	nt	-5	20	-12	-15
O=C(c1cnc(Cc2c[nH]c3ccccc23)c(I)c1)N1CCN(Cc2ccccc2)CC1	nt	-5	-27	47	nt	nt	-12	nt
CC(=O)OC[C@H]1O[C@@H](Oc2cc(O)cc3oc(-c4ccc(O)cc4)cc(=O)c23)[C@H](O[C@@H]2O[C@@H](C)[C@H](O)[C@@H](O)[C@H]2O)[C@@H](O)[C@@H]1O	nt	19	0	15	nt	5	-8	nt
CC1Oc2ccccc2OC1C(=O)Nc1nccs1 (stereo not given)	i	-2	0	-13	1	-7	-17	6
CCCC[C@@H]1CNC(=S)N1CCCC	i	3	3	12	-2	-11	-29	-1
CC1(c2cccc(Br)c2)NC(=O)N(CC(=O)Nc2cccnc2Cl)C1=O (stereo not given)	i	-1	0	-253	-2	-10	9	1
Cc1cc(-n2c(C)cc(C(=O)COc3ccccc3[N+](=O)[O-])c2C)no1	nt	1	3	-19	4	3	nt	-2
O=C(C[C@@H]1C/C=C\CCC(=O)OC[C@@H]2CCCN2C1=O)N[C@H](CO)Cc1ccccc1	nt	-2	2	3	nt	nt	-11	nt
COc1ccc2[nH]c3c(NCCCOC(C)C)ncnc3c2c1	?	10	-5	-58	-1	-4	nt	-1
O=c1[nH]c(CN2CCN(S(=O)(=O)/C=C/c3ccccc3)CC2)nc2cc(Cl)ccc12	i	-10	-5	25	-4	59	-23	-1
CON(C)S(=O)(=O)NC(=O)C1=C(N2CCCC2)COC1=O	nt	-1	3	-5	nt	-13	-5	nt
O=C(COc1ccc(S(=O)(=O)N2CCOCC2)cc1)Nc1cccc([N+](=O)[O-])c1	i	7	-3	-16	2	2	8	3
CCOC(=O)C1CCCN1C(=O)c1ccc(OC)c(Br)c1 (stereo not given)	i	6	6	-5	0	8	-11	-4
CN(C)S(=O)(=O)c1ccc2nc(NC(=O)c3cccnc3)sc2c1	i	2	12	-64	-4	-12	-9	3
Cc1ccc(-c2nnc(SCC(=O)NC(=O)Nc3ccc(C)cc3C)n2N)cc1	i	2	5	-17	-3	9	nt	3
CCc1ccc(-c2nc(CS(=O)CC(=O)NCCCN3CCOCC3)c(C)o2)cc1 (stereo not given)	i	-1	8	-7	-2	7	-19	2
CCOc1ccc(S(=O)(=O)Nc2cccc(C(=O)NCC(C)(C)N3CCOCC3)c2)cc1	i	3	-2	0	nt	nt	nt	nt
O=C(CN1C(=O)c2cccc3cccc1c23)NCc1ccncc1	i	6	6	-29	3	-2	-8	0
CC(=O)Nc1cccc(NC(=O)CSc2ccc(-c3ccccn3)nn2)c1	i	12	5	-16	2	0	nt	5
C=CCn1c(CCC(=O)O)ccc1-c1ccccc1	i	2	2	-5	2	3	-16	2
O=S(=O)(/N=C(/Nc1ccc(F)c(F)c1F)c1ccccc1)c1ccccc1	i	1	3	7	0	nt	-20	-18
CN(C)CCCNC(=O)/C(=C/c1ccc(-c2ccc([N+](=O)[O-])cc2)o1)NC(=O)c1ccccc1	i	-14	-2	-24	-8	36	-20	-9
CCn1c(=O)cc(OCC(=O)N2CCN(C(=O)c3ccco3)CC2)c2ccccc21	i	3	5	13	-9	-10	-9	2

The list continues:
SMILES	Rce1 inh	MT1-MMP act inh	MT1-MMP act inh RFP	Env fusion inh	eIF4H inh	CSC inhib	UUG fidelity	PABP FP inh
Nn1c(=O)[nH]c2c([nH]c3ccccc32)c1=O	i	6	3	-2	-8	-6	nt	7
COc1ccc(/C(N)=N/OC(=O)c2cccs2)cc1OC	i	1	-2	-38	-3	-12	nt	-4
O=C(NNC(=S)Nc1cccc(Cl)c1)c1ccccc1OC(F)F	i	2	-1	21	6	-25	nt	5
Cn1cc(CN2CCCC(CO)(Cc3ccccc3)C2)cn1 (stereo not given)	i	2	4	5	-6	-1	-13	-10
COCCn1c(C)cc(C2=NNC(=Nc3ccccc3)SC2)c1C	i	-9	-3	nt	0	-4	-20	8
O=C(NNc1c(Cl)cccc1Cl)C1CCC1	i	-4	1	6	3	1	nt	0
O=C(CSc1nnc2ccccn12)Nc1ccccc1C(=O)NC1CC1	i	1	2	-15	-22	-3	-11	6
O=C(Nc1nccs1)c1ccc(CSc2ccccc2)o1	i	8	4	-60	-7	7	-15	-2
COc1ccc(C(=O)N[C@H](C(=O)N2CCN(c3ccccc3F)CC2)C(C)C)cc1	i	-7	-5	20	-9	0	nt	-1
CC(C)c1ccc2oc(-c3cc(N)ccc3O)nc2c1	i	8	0	i	5	15	-83	2
CC(=O)N/N=c1\sc2ccccc2n1C	i	-4	-2	5	-4	0	-5	0
C[C@H](CO)N1C[C@H](C)[C@@H](CN(C)C(=O)Nc2ccccc2)Oc2ccc(NC(=O)Nc3ccc4c(c3)OCO4)cc2C1=O	nt	1	3	-15	nt	nt	6&8	nt
O=C(CN1CCOCC1)Nc1ncc(Cc2cccc3ccccc23)s1	i	7	-6	nt	0	-11	27	-11
CCOC(=O)c1c(-c2ccccc2)nc2ccc(C)cn12	i	-1	2	-236	-6	61	-15	0
CCOc1ccc(NC(=O)c2ccc3c(=O)n(-c4ccc(OC)cc4OC)c(=S)[nH]c3c2)cc1	i	-6	-23	11	4	11	-17	11

Two records picked at random from those above, as already listed:
SMILES	Rce1 inh	MT1-MMP act inh	MT1-MMP act inh RFP	Env fusion inh	eIF4H inh	CSC inhib	UUG fidelity	PABP FP inh
O=C(CN1CCOCC1)Nc1ncc(Cc2cccc3ccccc23)s1	i	7	-6	nt	0	-11	27	-11
CC(C)c1ccc2oc(-c3cc(N)ccc3O)nc2c1	i	8	0	i	5	15	-83	2

(more compounds)
SMILES	Rce1 inh	MT1-MMP act inh	MT1-MMP act inh RFP	Env fusion inh	eIF4H inh	CSC inhib	UUG fidelity	PABP FP inh
Cc1ncc(CN2CCC(CO)(Cc3ccccc3)CC2)s1	i	0	1	-11	4	-4	nt	-2
O=C(/C=C(\O)c1ccc(Cl)cc1)C(=O)NNC(=O)C(O)(c1ccccc1)c1ccccc1	nt	8	6	nt	17	-2	-12	7
Cc1ccnc(SCc2nc3ccccc3s2)n1	i	-7	4	-30	10	-2	nt	19
COc1ccc(/C=C(\C#N)C(=O)NCC2CCCO2)cc1OC (stereo not given)	i	2	7	-6	-6	-5	-8	7
O=C(O)c1cc(-c2ccccc2)on1	i	-1	0	-39	2	-7	-36	-4
